Screening results: PubChem BioAssay, Broad Institute
Env fusion inh: inhibitors of HIV Env-mediated cell fusion. HeLa-JRFL Env/CEM21 cell fusion, luciferase. inhibition, % at 12.3 µM. hit rate 1.1% among 360,000. AID 651610;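 active = mean replicate inhibition score of at least 50 and every replicate individually at or above 50; inconclusive = only one of the two criteria met; inactive = mean below 50 and not all replicates reaching 50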;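 note: 0% = plate neutral controls and 100% = maraviroc near 300 nM; one replicate is shown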
Yeast UUG start: alters start codon recognition fidelity in yeast | S. cerevisiae UUG-firefly luciferase reporter, luminescence/redox ratio | AID 602363 | hit rate 0.13% among 350,000 | activity score, % at 18.7 µM;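 active = replicate mean at a twofold rise or more, about +100% in these data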;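 note: firefly luciferase made from a UUG start codon reports start codon fidelity; reporter light over untreated wells divided by growth signal over untreated wells; some hits fall short of that in this replicate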
The depositor's hits bear a star; ? = inconclusive; [ ] = dose if it differs, or a comment.

Env fusion inh	Yeast UUG start	SMILES
-18.8[16.7 µM]	25.0	O=C(C[C@H]1C[C@@H]2c3cc(NC(=O)C4CCC4)ccc3O[C@@H]2[C@H](CO)O1)NCc1cc(F)ccc1F
-5.2[16.7 µM]	-1.8	COc1ccccc1-c1ccc2c(c1)O[C@@H](CN(C)C)[C@H](C)CN([C@@H](C)CO)S2(=O)=O
-11.8[16.7 µM]	4.3	C[C@@H]1CN([C@@H](C)CO)C(=O)Cc2cc(NS(=O)(=O)c3ccc(Cl)cc3)ccc2O[C@@H]1CN(C)S(=O)(=O)c1cn(C)cn1
2.1[16.7 µM]	7.8	C[C@@H]1CN([C@H](C)CO)C(=O)c2cc(NC(=O)C3CCCCC3)ccc2O[C@@H](C)CCCCO[C@@H]1CN(C)C(=O)c1ccccc1
-7.8[16.7 µM]	-12.9	C[C@@H]1CN([C@H](C)CO)C(=O)Cc2cc(NS(C)(=O)=O)ccc2O[C@@H]1CN(C)S(C)(=O)=O
17.0[16.7 µM]	-14.9	COc1ccc(-c2cn(CC[C@H]3CC[C@@H](N)[C@H](CO)O3)nn2)cc1
8.5[16.7 µM]	37.3	C[C@H]1CN([C@@H](C)CO)C(=O)c2cccc(NS(C)(=O)=O)c2O[C@@H]1CN(C)S(=O)(=O)c1ccccc1
14.3[16.7 µM]	4.7	C[C@H](CO)N1C[C@H](C)[C@@H](CN(C)Cc2ccccc2)Oc2ccc(NS(=O)(=O)c3ccccc3)cc2C1=O
-20.1[16.7 µM]	-4.3	COCCNC(=O)C[C@@H]1C[C@H]2c3cc(NC(=O)c4ccc5c(c4)OCO5)ccc3O[C@H]2[C@@H](CO)O1
7.4[16.7 µM]	16.6	CCC(=O)Nc1ccc2c(c1)C(=O)N(C)[C@@H]1CC[C@H](CC(=O)NC3CCCC3)O[C@H]1CO2
22.0[16.7 µM]	1.2	COc1ccc(NC(=O)Nc2ccc3c(c2)CC(=O)N([C@H](C)CO)C[C@H](C)[C@@H](CN(C)S(=O)(=O)c2ccc(OC)cc2)O3)cc1
-5.2[16.7 µM]	23.1	C[C@@H]1CN([C@H](C)CO)S(=O)(=O)c2ccc(C#CC3CCCC3)cc2O[C@H]1CN(C)C(=O)Cc1ccncc1
-54.0[16.7 µM]	-3.3	Cc1cc(C(=O)Nc2cccc3c2O[C@@H](CN(C)S(=O)(=O)c2ccc(Cl)cc2)[C@H](C)CN([C@@H](C)CO)C3=O)n(C)n1
31.8[16.7 µM]	13.5	C[C@@H]1CCCCO[C@H](CN(C)Cc2ccncc2)[C@H](C)CN([C@H](C)CO)C(=O)c2cc(NS(=O)(=O)c3ccc(Cl)cc3)ccc2O1
2.4[16.7 µM]	23.7	COc1ccc(S(=O)(=O)Nc2ccc3c(c2)C(=O)N([C@H](C)CO)C[C@H](C)[C@@H](CN(C)C(=O)CCCN(C)C)OCCCC[C@H](C)O3)cc1
-38.8[16.7 µM]	12.0	COc1ccc(S(=O)(=O)N(C)C[C@@H]2Oc3c(NC(=O)C4CC4)cccc3C(=O)N([C@H](C)CO)C[C@H]2C)cc1
22.5[16.7 µM]	2.7	COc1ccc(NC(=O)N(C)C[C@H]2Oc3ccc(NS(=O)(=O)c4c(C)noc4C)cc3CC(=O)N([C@@H](C)CO)C[C@@H]2C)cc1
-5.3[16.7 µM]	-8.4	COCC(=O)Nc1ccc2c(c1)[C@H]1C[C@@H](CC(=O)NCc3ccc(OC)cc3)O[C@H](CO)[C@H]1O2
-9.1[16.7 µM]	0.3	O=C(NC1CCCC1)N[C@@H]1C=C[C@H](CC(=O)N2CCOCC2)O[C@@H]1CO
?	28.9	C[C@@H]1CCCCO[C@H](CN(C)Cc2ccc(C(F)(F)F)cc2)[C@H](C)CN([C@H](C)CO)C(=O)c2cc(NS(=O)(=O)c3ccccc3)ccc2O1
4.5[16.7 µM]	-7.9	C[C@@H]1CN([C@@H](C)CO)C(=O)c2cc(NC(=O)Cn3cnnn3)ccc2O[C@H]1CN(C)S(=O)(=O)c1ccc(F)cc1
-5.3[16.7 µM]	14.9	C[C@H](CO)N1C[C@H](C)[C@H](CN(C)C(=O)CCCN(C)C)OCCCC[C@H](C)Oc2ccc(NS(=O)(=O)c3cccs3)cc2C1=O
-2.8[16.7 µM]	-1.4	Cc1noc(C)c1NC(=O)Nc1ccc2c(c1)CC(=O)N([C@@H](C)CO)C[C@@H](C)[C@@H](CN(C)Cc1ccc(C(F)(F)F)cc1)O2
15.4[16.7 µM]	-9.0	N#C[C@@H]1[C@@H](c2ccc(C#CC3CC3)cc2)[C@H](CO)N1S(=O)(=O)c1ccccc1
-56.9[16.7 µM]	0.9	CC(C)NC(=O)N(C)C[C@@H]1OCCCC[C@@H](C)Oc2ccc(NS(=O)(=O)c3ccc(F)cc3)cc2C(=O)N([C@@H](C)CO)C[C@H]1C
-25.7[16.7 µM]	-6.9	CC(C)C#Cc1ccc2c(c1)O[C@@H](CN(C)Cc1ccccn1)[C@H](C)CN([C@H](C)CO)S2(=O)=O
-8.4[16.7 µM]	34.9	Cc1noc(C)c1NC(=O)Nc1cccc2c1O[C@H](CN(C)CC1CCCCC1)[C@H](C)CN([C@H](C)CO)C2=O
15.3[16.7 µM]	-4.4	C[C@H](CO)N1C[C@H](C)[C@@H](CN(C)CC2CCCCC2)Oc2ccc(NC(=O)Nc3ccc4c(c3)OCO4)cc2C1=O
-5.8[16.7 µM]	-11.0	C[C@@H]1CN([C@H](C)CO)S(=O)(=O)c2ccc(-c3cccnc3)cc2O[C@@H]1CN(C)Cc1cccnc1
37.3[16.7 µM]	14.1	COc1ccc(NC(=O)Nc2cccc3c2O[C@@H](CN(C)Cc2ccccc2)[C@H](C)CN([C@H](C)CO)C3=O)cc1
-2.4[16.7 µM]	7.8	CNC(=O)C[C@H]1CC[C@@H]2[C@H](COc3ccc(NC(=O)c4ccc(F)cc4)cc3C(=O)N2C)O1
4.4[16.7 µM]	7.6	COc1ccc(S(=O)(=O)N(C)C[C@H]2Oc3c(NC(=O)c4nc5ccccc5s4)cccc3C(=O)N([C@H](C)CO)C[C@@H]2C)cc1
25.2[16.7 µM]	2.8	CC(C)CC#Cc1ccc2c(c1)O[C@@H](CN(C)Cc1ccc(F)cc1)[C@H](C)CN([C@H](C)CO)S2(=O)=O
5.9[16.7 µM]	-11.2	O=C(C[C@H]1CC[C@H]2[C@@H](COC[C@H](O)CN2CCc2ccccc2)O1)NCc1ccccc1
-17.0[16.7 µM]	-11.2	C[C@H](CO)N1C[C@H](C)[C@H](CN(C)CC2CCCCC2)Oc2ccc(NC(=O)CCCN(C)C)cc2C1=O
-4.2[16.7 µM]	-4.1	O=C(C[C@H]1CC[C@H](NC(=O)c2cnccn2)[C@H](CO)O1)NCc1ccccc1F
-10.6[16.7 µM]	8.2	COCC#Cc1cnc2c(c1)C(=O)N([C@@H](C)CO)C[C@@H](C)[C@@H](CN(C)C(=O)Nc1c(C)noc1C)O2
-0.6[16.7 µM]	1.1	COCC(=O)N(C)C[C@@H]1Oc2ncc(/C=C/c3ccccc3)cc2C(=O)N([C@H](C)CO)C[C@@H]1C
4.4[16.7 µM]	1.5	CN(C)CCCNC(=O)C[C@H]1C=C[C@@H](NS(=O)(=O)c2ccccc2)[C@H](CO)O1
5.3[16.7 µM]	-11.4	O=C(Nc1ccc2c(c1)[C@@H]1C[C@@H](CC(=O)N3CCCCC3)O[C@H](CO)[C@@H]1O2)c1cccnc1
-15.0[16.7 µM]	-5.5	COc1ccc(-c2cnc3c(c2)C(=O)N([C@@H](C)CO)C[C@@H](C)[C@H](CN(C)C(=O)Cc2ccccn2)O3)cc1
8.3[16.7 µM]	20.3	CN1C(=O)c2cc(NC(=O)C3CCCC3)ccc2OC[C@H]2O[C@@H](CC(=O)NCC3CC3)CC[C@H]21
17.1[16.7 µM]	-5.9	CCCN(C)C[C@@H]1Oc2cc(C#Cc3ccc(OC)cc3)ccc2S(=O)(=O)N([C@H](C)CO)C[C@@H]1C
3.7[16.7 µM]	2.9	CCCC(=O)Nc1ccc2c(c1)C(=O)N(C)[C@H]1CC[C@H](CC(=O)O)O[C@H]1CO2
3.5[16.7 µM]	10.8	C[C@H](CO)N1C[C@H](C)[C@H](CN(C)Cc2ccc(Cl)c(Cl)c2)Oc2ccc(NS(C)(=O)=O)cc2C1=O
5.0[16.7 µM]	19.1	C[C@H](CO)N1C[C@H](C)[C@H](CN(C)C(=O)Nc2ccc3c(c2)OCO3)Oc2c(NC(=O)Nc3ccc(C(F)(F)F)cc3)cccc2C1=O
18.0[16.7 µM]	15.2	C[C@@H]1CN([C@@H](C)CO)S(=O)(=O)c2ccc(C3=CCCCC3)cc2O[C@@H]1CN(C)C(=O)c1ccccc1
2.1[16.7 µM]	-6.0	CC(C)NC(=O)Nc1ccc2c(c1)C(=O)N([C@@H](C)CO)C[C@H](C)[C@H](CN(C)C(=O)Nc1ccc3c(c1)OCO3)OCCCC[C@H](C)O2
7.7[16.7 µM]	-7.4	O=C(Nc1ccc(F)cc1)N[C@@H]1CC[C@@H](CCNC(=O)c2cc(Cl)cc(Cl)c2)O[C@@H]1CO
-21.3[16.7 µM]	-7.2	O=C(Nc1ccc(F)cc1)N[C@@H]1C=C[C@H](CC(=O)N2CCOCC2)O[C@H]1CO
10.7[16.7 µM]	3.4	C[C@@H]1CN([C@H](C)CO)C(=O)Cc2cc(NC(=O)NC3CCCCC3)ccc2O[C@@H]1CN(C)CC1CCCCC1
-17.3[16.7 µM]	-10.3	CNC[C@@H]1Oc2c(NC(=O)C3CC3)cccc2C(=O)N([C@H](C)CO)C[C@H]1C
0.6[16.7 µM]	-0.3	O=C(C[C@H]1C[C@H]2c3cc(NC(=O)CC4CC4)ccc3O[C@H]2[C@H](CO)O1)NCCN1CCCCC1
5.7[16.7 µM]	20.3	CCC(=O)N(C)C[C@@H]1Oc2cc(-c3ccccc3OC)ccc2S(=O)(=O)N([C@@H](C)CO)C[C@@H]1C
-5.1[16.7 µM]	-3.2	C[C@H](CO)N1C[C@H](C)[C@@H](CN(C)C(=O)NC2CCCCC2)Oc2ccc(NC(=O)Nc3ccc4c(c3)OCO4)cc2C1=O
-9.3[16.7 µM]	-10.7	C=CCOC(=O)[C@H]1[C@@H]2C(=O)O[C@@H](c3ccccc3)[C@@H](c3ccccc3)N2[C@@H](c2ccc(OCCOC(=O)[C@H]3C[C@H]4C(=O)N5CCC[C@H]5C(=O)N4[C@H]3c3cccc(OCCO)c3)cc2)[C@]12C(=O)Nc1ccccc12
-27.5[16.7 µM]	4.8	Cc1cc(C(=O)Nc2cccc3c2O[C@H](CN(C)Cc2ccc(Cl)c(Cl)c2)[C@H](C)CN([C@@H](C)CO)C3=O)n(C)n1
7.7[16.7 µM]	-5.1	COc1cc2c(cc1OC)CN(C(=O)[C@H]1[C@@H]3C(=O)O[C@@H](c4ccccc4)[C@@H](c4ccccc4)N3[C@@H](c3ccccc3OCCO)[C@]13C(=O)Nc1ccc(C#CC4(O)CCCCCC4)cc13)CC2
-2.9[16.7 µM]	-5.1	COc1ccc(-c2ccc([C@@H]3[C@@H](CO)N(C(=O)NC(C)C)[C@H]3C#N)cc2)cc1
24.7[16.7 µM]	9.9	COc1ccc(C#Cc2cnc3c(c2)C(=O)N([C@@H](C)CO)C[C@H](C)[C@H](CN(C)C(=O)c2ccccc2F)O3)cc1

Further records:
Env fusion inh	Yeast UUG start	SMILES
-14.8[16.7 µM]	-7.1	C[C@@H]1CN([C@@H](C)CO)C(=O)c2cc(C3=CCCC3)cnc2O[C@H]1CN(C)S(=O)(=O)c1cn(C)cn1
14.7[16.7 µM]	-0.4	CO[C@@H]1CN(C)C(=O)c2cc(NC(=O)C3CC3)ccc2OC[C@@H](C)N(C(=O)Cc2ccccn2)C[C@H]1C
9.3[16.7 µM]	-16.8	COC(=O)C[C@@H]1C[C@@H]2c3cc(NC(=O)CC4CC4)ccc3O[C@@H]2[C@H](CO)O1
-5.0[16.7 µM]	-5.7	Cc1noc(C)c1NC(=O)Nc1cccc2c1O[C@@H](CN(C)C(=O)Nc1ccccc1)[C@@H](C)CN([C@@H](C)CO)C2=O
16.5[16.7 µM]	10.8	C[C@@H]1CN([C@H](C)CO)S(=O)(=O)c2ccc(C#CCC3CCCC3)cc2O[C@@H]1CN(C)C
-10.8[16.7 µM]	-6.0	Cc1ccc(S(=O)(=O)N(C)C[C@H]2OCCCC[C@H](C)Oc3ccc(NC(=O)Cc4ccccc4)cc3C(=O)N([C@@H](C)CO)C[C@H]2C)cc1

No new results follow: entries from further up.
Env fusion inh	Yeast UUG start	SMILES
-27.5[16.7 µM]	4.8	Cc1cc(C(=O)Nc2cccc3c2O[C@H](CN(C)Cc2ccc(Cl)c(Cl)c2)[C@H](C)CN([C@@H](C)CO)C3=O)n(C)n1
7.7[16.7 µM]	-5.1	COc1cc2c(cc1OC)CN(C(=O)[C@H]1[C@@H]3C(=O)O[C@@H](c4ccccc4)[C@@H](c4ccccc4)N3[C@@H](c3ccccc3OCCO)[C@]13C(=O)Nc1ccc(C#CC4(O)CCCCCC4)cc13)CC2
-2.9[16.7 µM]	-5.1	COc1ccc(-c2ccc([C@@H]3[C@@H](CO)N(C(=O)NC(C)C)[C@H]3C#N)cc2)cc1
24.7[16.7 µM]	9.9	COc1ccc(C#Cc2cnc3c(c2)C(=O)N([C@@H](C)CO)C[C@H](C)[C@H](CN(C)C(=O)c2ccccc2F)O3)cc1
-14.8[16.7 µM]	-7.1	C[C@@H]1CN([C@@H](C)CO)C(=O)c2cc(C3=CCCC3)cnc2O[C@H]1CN(C)S(=O)(=O)c1cn(C)cn1
14.7[16.7 µM]	-0.4	CO[C@@H]1CN(C)C(=O)c2cc(NC(=O)C3CC3)ccc2OC[C@@H](C)N(C(=O)Cc2ccccn2)C[C@H]1C
9.3[16.7 µM]	-16.8	COC(=O)C[C@@H]1C[C@@H]2c3cc(NC(=O)CC4CC4)ccc3O[C@@H]2[C@H](CO)O1
-5.0[16.7 µM]	-5.7	Cc1noc(C)c1NC(=O)Nc1cccc2c1O[C@@H](CN(C)C(=O)Nc1ccccc1)[C@@H](C)CN([C@@H](C)CO)C2=O

An excerpt; count on the stated rates, not on these rows.
